# Arbovirus inh – arbovirus infection inhibition; 200,000 compounds, 0.37% hits; inhibition, % at 10 µM; AID 1251; arbovirus infection cell-based antiviral screen;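 active = inhibition from about 30%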;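 note: bluetongue infection of BSR cells; cell survival read as ATP light after 72 h; 0% = infected wells without compound and 100% = uninfected wells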
# Mtb betalactam – beta-lactam sensitization of Mtb H37Rv. M. tuberculosis H37Rv growth with meropenem, percent inhibition; hits of this screen are not shown here. inhibition, % at 25 µM. 330,000 compounds, 0.27% hits. AID 434955;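 active = about 74% or more and at least 40 points above the plate without the antibiotic, then above 30% in a dose series; inconclusive = first-round hits that could not be retested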;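 note: growth measured after seven days incubation then overnight dye step; 0% = bacteria only wells and 100% = bacteria with antibiotic; twin plates without the antibiotic show which effects depend on it; some results filed as inactive read as strong as hits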
# YopH inh – YopH (Yersinia) phosphatase inhibition; fluorescence Ex485/Em525; inhibition, %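 (about 10 µM by stock and volumes)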; 140,000 compounds, 0.16% hits;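 active = inhibition of 50% or more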;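 note: controls were vehicle for no effect and minimum signal wells for full effect; inactives centre near -20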
# RecA splice inh – Mtb RecA intein splicing inhibition | cell-free RecA intein splicing, fluorescence | inhibition, %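 (about 9 µM by stock and volumes)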 | 290,000 compounds, 0.75% hits | AID 2221; in the data active = inhibition above about 30%; inconclusive = no clear call, values can overlap the other calls;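 note: 0% = vehicle wells and 100% = reference inhibitor control wells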
# Target sequence (P9WHJ3 whole entry, looked up, canonical isoform): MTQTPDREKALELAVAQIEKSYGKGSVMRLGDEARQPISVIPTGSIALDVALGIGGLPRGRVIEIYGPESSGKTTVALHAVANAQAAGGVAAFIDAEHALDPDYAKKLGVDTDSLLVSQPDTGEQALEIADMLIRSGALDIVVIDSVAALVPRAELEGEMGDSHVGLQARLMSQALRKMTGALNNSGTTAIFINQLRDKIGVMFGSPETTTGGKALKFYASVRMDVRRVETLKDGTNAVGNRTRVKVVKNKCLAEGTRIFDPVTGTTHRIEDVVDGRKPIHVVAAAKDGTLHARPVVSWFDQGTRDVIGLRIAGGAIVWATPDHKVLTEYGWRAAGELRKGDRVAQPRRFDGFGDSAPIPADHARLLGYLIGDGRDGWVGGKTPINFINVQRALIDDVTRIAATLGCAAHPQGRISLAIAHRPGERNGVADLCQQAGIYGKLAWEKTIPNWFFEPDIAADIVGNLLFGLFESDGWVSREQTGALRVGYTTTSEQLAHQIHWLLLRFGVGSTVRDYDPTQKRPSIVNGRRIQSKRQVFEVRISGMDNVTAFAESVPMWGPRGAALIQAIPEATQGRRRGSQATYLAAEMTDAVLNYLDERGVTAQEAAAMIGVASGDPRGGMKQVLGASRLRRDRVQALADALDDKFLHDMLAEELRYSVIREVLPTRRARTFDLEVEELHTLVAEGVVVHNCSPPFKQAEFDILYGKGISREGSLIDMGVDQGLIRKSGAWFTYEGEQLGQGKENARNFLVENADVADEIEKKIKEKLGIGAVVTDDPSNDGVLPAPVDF
# Mtb H37Rv – M. tuberculosis H37Rv growth inhibitors, H37Rv strain (AID 1626) | M. tuberculosis H37Rv growth inhibition; higher % means a stronger effect | inhibition, % at 10 µM; hits with a dose series show IC50 in µM | 220,000 compounds, 0.95% hits;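 active = confirmed in a dose series; inconclusive = inhibition above 80% but not taken into the dose series; inactive = below 80% or under 30% at every dose of the series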;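 note: bacteria incubated seven days before Alamar blue readout; 0% = bacteria only wells and 100% = bacteria with antibiotic wells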
# Arbovirus inh repeat – further read-out of Arbovirus inh, marked with its call; inhibition, %; measured here: 10K subset replicate screen; many hits read low in the repeat;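 first of two repeat runs on a subset; 0% = infected and 100% = uninfected wells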
# Starred values were filed as active, the others as inactive; u = inconclusive; x = not tested or not shown. Only part of the results is shown (hit frequency here may not be typical).
SMILES,Arbovirus inh,Mtb betalactam,YopH inh,RecA splice inh,Mtb H37Rv,others
CC(C)(C)c1ccc(C(=O)CC(=O)c2cc(Cl)ccc2O)cc1,-11.0,100.0,17.9,5.4,2.67µM*,
COc1ccc(NC(=S)NC(NC(=O)c2ccccc2Cl)C(Cl)(Cl)Cl)c([N+](=O)[O-])c1 (stereo unspecified),-4.2,0.7,-25.3,4.9,-3.1%,
Cc1ccc(NC(=O)NC2CCN(CC(=O)Nc3nccs3)CC2)cc1,-5.8,-9.2,-36.5,x,-11.2%,
Cc1cc(-c2nnc(SCc3cccnc3)o2)no1,5.0,1.0,-48.3,-0.8,-13.0%,
Fc1ccc(Sc2ccccc2CNC2=NCCN2)cc1,9.2,-2.1,-31.0,-1.2,2.2%,
O=C(COc1cccc(F)c1)N1c2ccccc2Sc2ccccc21,-4.9,-7.1,40.4,4.2,39.0%,
O=c1cc(CN2CCOCC2)c2cc(Cl)ccc2o1,x,0.1,x,-3.5,x,
COC(=O)C(CC(C)C)NC(=O)C(N)Cc1ccccc1 (stereo unspecified),1.8,-0.6,-31.3,1.0,-6.9%,
CCO[C@@H]1OC(C(=O)N2CCN(C)CC2)=C[C@H](c2coc3ccccc3c2=O)[C@H]1CCCO,1.2,-4.8,x,-1.1,-19.1%,
CCCn1c(N)c(N(CCOC)C(=O)COC(=O)c2ccccc2NCCO)c(=O)[nH]c1=O,x,-6.9,x,-4.6,x,

# The last five compounds of the section above are carried over, then new ones follow:
SMILES,Arbovirus inh,Mtb betalactam,YopH inh,RecA splice inh,Mtb H37Rv,others
O=C(COc1cccc(F)c1)N1c2ccccc2Sc2ccccc21,-4.9,-7.1,40.4,4.2,39.0%,
O=c1cc(CN2CCOCC2)c2cc(Cl)ccc2o1,x,0.1,x,-3.5,x,
COC(=O)C(CC(C)C)NC(=O)C(N)Cc1ccccc1 (stereo unspecified),1.8,-0.6,-31.3,1.0,-6.9%,
CCO[C@@H]1OC(C(=O)N2CCN(C)CC2)=C[C@H](c2coc3ccccc3c2=O)[C@H]1CCCO,1.2,-4.8,x,-1.1,-19.1%,
CCCn1c(N)c(N(CCOC)C(=O)COC(=O)c2ccccc2NCCO)c(=O)[nH]c1=O,x,-6.9,x,-4.6,x,
CCOC(=O)C1CCCN(c2c(NCCCN(CC)c3ccccc3)c(=O)c2=O)C1 (stereo unspecified),6.9,-5.7,-42.4,-2.0,-5.2%,
Cn1cc(S(=O)(=O)N2CCc3ccccc32)cc1C(=O)NC(C)(C)C,x,4.8,x,-1.8,x,
O=C(COc1ncnc2c(Cl)cc(Cl)cc12)N1CCCCC1,-3.0,5.3,-42.0,2.8,-21.8%,
Cc1cc(S(=O)(=O)N2CCOCC2)ccc1OCC(=O)Nc1ccc(F)cc1F,x,5.1,x,-0.3,x,
O=C(CNC(=O)c1ccc(Cl)cc1)Nc1ccccc1C(F)(F)F,5.5,-3.1,x,0.8,5.9%,
CCCOc1ccc(Cl)cc1Nc1nc(NCCO)nc(N2CCCC2)n1,x,27.9,x,-0.8,2.5%,
CCCCC(NC(=O)Cc1c(C)c2cc3c4c(oc3c(C)c2oc1=O)CCCC4)C(=O)O (stereo unspecified),x,-4.3,x,-5.8,x,
COc1ccc(NC(=S)N(CCO)Cc2ccccc2)cc1,2.6,13.0,x,8.9,2.1%,
N#C/C(=C(/O)c1ccc2c(c1)OCO2)c1nc2cc(C(F)(F)F)ccc2s1,x,-0.6,x,-2.4,x,
COc1ccc(C/C(C)=N/NC(=O)c2cccnc2)cc1,7.5,5.9,-24.7,-2.8,-10.0%,
COc1cccc(NC(=O)c2ccccc2N2C(=O)C3C4C=CC(C4)C3C2=O)c1 (stereo unspecified),x,u,x,-0.8,x,
CS(=O)(=O)N1CCN(C(=O)c2cc(-c3ccccc3)nc3ccccc23)CC1,9.2,-12.9,-5.7,-8.3,3.3%,
O=C(OCCCN1CCCCC1)c1ccc(O)cc1,15.5,-3.4,-30.0,-2.3,0.8%,
COc1ccc(CC(=O)Nc2c(C(=O)N3CCN(c4ncccn4)CC3)oc3ccccc23)cc1,x,-1.8,x,3.0,x,
CCOC(=O)C1CCCN(c2c(NCCCN(C)Cc3ccccc3)c(=O)c2=O)C1 (stereo unspecified),1.9,-14.4,-7.4,-1.5,-0.7%,
COc1ccc(CCN(Cc2ccccn2)C(=S)Nc2ccccc2Cl)cc1OC,2.3,-1.6,x,-2.0,-5.4%,
CCCc1c(C)[nH]c2ccc(NC(C)=O)cc2c1=O,-0.3,2.6,-21.9,-0.7,1.9%,
Cc1ccc2[nH]c(=O)cc(C(=O)OCC(=O)c3ccccc3)c2c1,-0.8,-3.2,-31.2,2.1,4.9%,
O=C(CN(C(=O)CSc1nc2ccccc2o1)c1ccccc1F)NC1CCCCC1,-3.6,-4.3,-16.9,-2.5,1.8%,
COCCN1C(=O)C(O)=C(C(C)=O)C1c1ccc(F)cc1 (stereo unspecified),-4.4,1.8,-50.6,-1.3,-1.5%,
Cc1cc(N(CC(=O)NC(C)C)S(C)(=O)=O)ccc1Br,3.2,-5.6,-17.9,1.9,6.2%,
CCOc1ncccc1C(=O)OCC(=O)Nc1cc(C)ccc1C,4.7,-6.6,-42.1,-2.1,-6.0%,
Cc1nn(C)c(N)c1C(O)(c1nccn1C)C(F)(F)F (stereo unspecified),-5.5,-8.0,-15.6,1.0,x,
O=C(NNC(=S)NC(=O)c1cccnc1)c1ccc(Cl)cc1,-20.7,92.6,-8.4,-2.7,63.5%,
CCCC(C(=O)NC1CCCC1)N(CC1CCCO1)C(=O)c1snc(C(N)=O)c1N (stereo unspecified),7.8,-10.2,-34.9,-0.1,0.8%,
O=C(c1cc(COc2ccc3ncccc3c2)on1)N1CCCCCC1,16.5,1.6,x,2.2,11.4%,
O=C1CC2(CCN(C(=O)c3ccccc3[N+](=O)[O-])CC2)Oc2ccccc21,x,3.0,x,-5.1,x,
COc1ccc(CCC(=O)OCC(=O)c2c(N)n(CC(C)C)c(=O)n(C)c2=O)cc1,x,-8.2,x,2.3,x,
Cc1ccc(-c2cc(-c3ccc(C)cc3)[n+](-c3ccccc3)c(-c3ccc(C)cc3)c2)cc1,x,100.0,x,23.7,x,
O=C(Nc1sccc1C(=O)N1CCOCC1)c1cccnc1,3.1,-13.8,-25.6,1.7,-1.6%,

# Entries above containing a furan ring, fused or not, in the order listed:
SMILES,Arbovirus inh,Mtb betalactam,YopH inh,RecA splice inh,Mtb H37Rv,others
CCCCC(NC(=O)Cc1c(C)c2cc3c4c(oc3c(C)c2oc1=O)CCCC4)C(=O)O (stereo unspecified),x,-4.3,x,-5.8,x,
COc1ccc(CC(=O)Nc2c(C(=O)N3CCN(c4ncccn4)CC3)oc3ccccc23)cc1,x,-1.8,x,3.0,x,

# The list continues.
SMILES,Arbovirus inh,Mtb betalactam,YopH inh,RecA splice inh,Mtb H37Rv,others
O=C(Nc1nncs1)C12CC3CC(CC(C3)C1)C2,x,7.4,x,0.9,x,
COc1ccccc1OCc1ccc(C(=O)NC(C)c2ccccc2)o1 (stereo unspecified),x,-0.1,x,12.2,x,
CN1CCN(CCC(=O)N/N=C/c2cc3c(cc2[N+](=O)[O-])OCO3)CC1,x,-11.4,x,-4.0,x,
O=C(CCn1nc(-c2ccccc2)c2ccccc2c1=O)NCC1CCCO1 (stereo unspecified),-9.0,1.2,-34.5,1.0,x,
COc1cc(C(=O)OC(C)C(=O)NC2CCCCC2C)c([N+](=O)[O-])cc1OC (stereo unspecified),x,-6.4,x,0.6,x,
CCCc1nnc(NC(=O)C(CC)OC(=O)c2cc(C)nc3ccccc23)s1 (stereo unspecified),7.7,6.3,-48.2,-0.8,1.1%,
CCN(CC)CCNC(=O)/C(=C\c1cccn1C)NC(=O)c1cccs1,8.9,2.6,-15.2,4.8,4.0%,
COc1ccc(NC(=S)NCc2ccc(F)cc2)c(OC)c1,x,-3.6,x,1.2,x,
O=[N+]([O-])c1ccc2[nH]c(O)c(N=NC(=S)NCC3CCCO3)c2c1 (stereo unspecified),-4.4,-5.4,-21.5,1.1,-1.0%,
CCCN1C2CCCC1CC(NC(=O)c1ccccc1OCC)C2 (stereo unspecified),-2.3,4.0,-22.7,-0.7,-5.4%,
COc1ccc(-c2nnc3n(CCc4ccccc4)c(=O)c4ccccc4n23)c(OC)c1,7.9,2.6,-31.0,-3.7,3.5%,
C=CCNc1nc(Cl)nc(Nc2ccc(OCC)cc2)n1,-7.4,-0.7,-30.9,0.0,6.3%,
C#CCOc1ccc(C2C3=C(CC(C)(C)CC3=O)N(CC(=O)O)C3=C2C(=O)CC(C)(C)C3)cc1,x,-8.0,x,-414.6,x,
CSCc1c(C(=O)Nc2ccc(N3CCOCC3)cc2)oc2ccccc12,-4.4,7.5,-19.1,-0.6,0.3%,
Cc1nn(Cc2ccccc2)c(C)c1NC(=O)CSc1nc2c(c(C(F)(F)F)n1)CCc1ccccc1-2,25.6,0.0,-16.6,0.1,-10.3%,
CCOC(=O)CSc1nc(-c2ccccc2)nc2ccc(C)cc12,-4.1,2.1,x,-3.1,-6.5%,
COC(=O)N1CCN(CCc2ccccc2)CC1,6.2,-1.6,x,-2.7,-0.5%,
Cc1cccn2c(=O)c3cc(C#N)c(=O)n(CC4CCCO4)c3nc12 (stereo unspecified),2.2,x,-51.5,x,-14.1%,
Cc1cccc(C(=O)Nc2ccnc(-c3ccncc3)n2)c1,2.3,3.9,x,1.0,2.7%,
COc1ccc([C@@H]2[C@@H]3C(=O)N(C(C)(C)C)C(=O)[C@@H]3[C@]3(Cc4ccccc4)C(=O)N(c4cccc(F)c4)C(=O)N23)cc1,x,-16.8,x,2.6,x,
Cc1ccc(CCNC(=O)C2CCN(S(=O)(=O)N3CCCCC3)CC2)cc1,x,8.3,x,-8.0,x,
CCNC(=S)NS(=O)(=O)c1ccc(Cl)cc1,4.9,4.0,-43.3,0.3,-6.2%,
COc1ccc(NC(=S)NCCc2ccc(Cl)cc2)c(OC)c1,3.5,-0.5,-41.4,1.4,3.2%,
COCCCNC(=O)c1ccc(Cn2c(=O)c3ccccc3n(Cc3cc(C)ccc3C)c2=O)cc1,-6.1,-1.6,5.5,x,-12.7%,
O=C(COC(=O)c1ccco1)c1ccc(S(=O)(=O)N2CCCCC2)cc1,x,-1.0,x,1.9,x,
O=C1NC2(CCCCCC2)Oc2ccccc21,-4.5,-4.1,x,0.0,-0.3%,
CCN(CC)C(=O)CSc1nnc(-c2ccccn2)n1-c1ccccc1OC,x,-1.4,x,-0.7,-4.5%,
O=C(Nc1ccnn1C1CCN(C2CCC2)CC1)c1ccccc1,x,u,x,0.0,x,
COC(=O)CCC(=O)N1CCCC(N2CCN(c3cccc(C(F)(F)F)c3)CC2)C1 (stereo unspecified),x,8.1,x,2.0,x,
C=CC(=O)NC(C)(C)Cc1ccccc1,-0.8,-6.6,-24.4,0.5,-1.3%,
CC1CCCN(c2nc3c(c(=O)n(C)c(=O)n3C)n2Cc2ccccc2)C1 (stereo unspecified),-6.8,4.6,x,6.4,3.1%,Arbovirus inh repeat=-0.7

# High-throughput results from PubChem.
